Source: PubChem
TRPML1 ag: agonists of human TRPML1 channel; Q9GZU1; TRPML1-expressing cells, Ca2+ dye fluorescence, FDSS; host cell line not named in the record; reference of the full effect not given here; 410,000 tested, 0.12% active; activation, % (concentration not given with the values); in the data active = activation above about 50%; inconclusive = about 30% to 50%; inactive = below about 30%; note: 0% is about no effect; the text of the record puts the active cut at 80%
Target sequence (Q9GZU1 whole entry, looked up): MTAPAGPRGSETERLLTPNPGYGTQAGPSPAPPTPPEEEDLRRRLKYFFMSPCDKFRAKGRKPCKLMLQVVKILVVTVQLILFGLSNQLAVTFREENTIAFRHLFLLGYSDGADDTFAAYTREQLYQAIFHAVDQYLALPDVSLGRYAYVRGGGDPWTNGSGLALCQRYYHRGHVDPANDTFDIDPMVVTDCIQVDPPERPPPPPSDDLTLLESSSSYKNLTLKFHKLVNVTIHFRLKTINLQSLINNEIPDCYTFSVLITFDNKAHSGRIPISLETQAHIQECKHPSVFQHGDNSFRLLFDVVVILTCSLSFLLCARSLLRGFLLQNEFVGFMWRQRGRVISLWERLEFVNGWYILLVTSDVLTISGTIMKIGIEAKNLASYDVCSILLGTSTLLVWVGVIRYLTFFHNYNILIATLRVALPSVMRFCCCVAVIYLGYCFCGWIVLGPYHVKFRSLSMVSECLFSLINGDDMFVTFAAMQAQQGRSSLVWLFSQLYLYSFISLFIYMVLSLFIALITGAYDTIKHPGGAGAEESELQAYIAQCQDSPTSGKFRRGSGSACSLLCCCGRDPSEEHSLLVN
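Tet-induced TRPML1-DL cells, 1,500 per well, cultured overnight, were loaded with a no-wash Ca2+ dye for 45–90 min. Calcium fluorescence was recorded on the FDSS for 110 s after compound addition, before the EC80 agonist (4 uM 54-4) was added.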
TRPML1 blocker: human mucolipin-1 channel inhibition. Q9GZU1. TRPML1-inducible cells, Ca2+ dye fluorescence, FDSS; hits give low values; inhibition of EC80 agonist-evoked calcium signal. activity change, negative = inhibition, % (test concentration not listed). 390,000 tested, 0.02% active. AID 624415; in the data active means activity change below about -50%; inconclusive means about -30% to -50%; inactive means above about -30%;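 note: stimulus is agonist 54-4 at its EC80 concentration; % is set by controls: 0 for no effect and ±100 for the full control effect; compound concentration not given in the record; the text of the record puts the active cut at -80%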
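Calcium fluorescence in TRPML1-DL cells induced overnight with Tet: a 110 s read after compound pin addition, then a 110 s antagonist read after challenge with 54-4 at 4 uM final (EC80).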
* = called active by the depositor. Some of the compounds tested; rates above refer to the full screens.

`CC(C)(C)c1ccc(C(=O)NC2(C(F)(F)F)NC(=O)N(CCc3ccccc3)C2=O)cc1` (stereo not given) gave TRPML1 ag 1.0 and TRPML1 blocker 5.
For CN(Cc1ccccc1)C(=O)c1c[nH]c2ccc(S(=O)(=O)Nc3ccccc3F)cc2c1=O the results were TRPML1 ag 3.7 and TRPML1 blocker inconclusive.
Screening Cc1ccc(CNC(=O)Cc2c(C)c3cc4c(C)coc4cc3oc2=O)cc1 returned TRPML1 ag -0.7 and TRPML1 blocker 14.
For Cc1ccc(C(=O)c2cn(Cc3cc(C)ccc3C)c3nc(C)ccc3c2=O)cc1 the results were TRPML1 ag -0.6 and TRPML1 blocker 41.
CCN(CC)C(=O)CC(c1ccc(OC)cc1)c1c(OC)cc(OC)c2c(-c3ccccc3)cc(=O)oc12 (stereo not given) was read as TRPML1 ag 1.9 and TRPML1 blocker 27.
For CC(C)(C)OC(=O)N1CCC(c2c(C(=O)NCc3ccccc3)cnn2-c2ccccc2)CC1 the results were TRPML1 ag 0.1 and TRPML1 blocker -13.
Screening CCN1CCN(C(c2ccccc2)c2sc3nc(-c4ccco4)nn3c2O)CC1 (stereo not given) returned TRPML1 ag 0.2 and TRPML1 blocker -9.
`Cc1ccc(C2C(=O)N(C3CCCCCC3)CC(=O)N2CCC2=CCCCC2)cc1` (stereo not given) gave TRPML1 ag -0.8 and TRPML1 blocker 3.
Screening CCc1cccc2c(-c3ccccc3)nc(SCC(=O)Nc3ccccc3)nc12 returned TRPML1 ag -0.3 and TRPML1 blocker 0.
CCc1ccc(NC(=O)CSc2ccc(-c3sc(-c4ccccc4)nc3C)nn2)cc1 was read as TRPML1 ag 0.5 and TRPML1 blocker -1.
Cc1ccc(NC(=O)CSc2nnc(NC(=O)NC3CCCCC3)s2)cc1 was read as TRPML1 ag 1.5 and TRPML1 blocker -2.
Screening COc1ccc(C(=O)Nc2nnc(S(=O)(=O)N3CCN(c4ccc(F)cc4)CC3)s2)cc1 returned TRPML1 ag 0.7 and TRPML1 blocker -9.
Screening Cc1ccccc1OCC(O)Cn1c(=N)n(CCN2CCCCC2)c2ccccc21 (stereo not given) returned TRPML1 ag -0.4 and TRPML1 blocker -4.
For COc1ccc(-c2nc3ccccc3n2Cc2ccc(C(C)C)cc2)cc1 the results were TRPML1 ag 2.6 and TRPML1 blocker 53.
For Cc1ccc(-n2nc3c(N4CCC(C(=O)NC5CCC(C)CC5)CC4)nnc(C)c3c2C)cc1 (stereo not given) the results were TRPML1 ag 2.1 and TRPML1 blocker 16.
CCOc1ccc(CCNc2ncnc3onc(C)c23)cc1OCC was read as TRPML1 ag 0.3 and TRPML1 blocker 22.
Screening CC(C)c1ccc(OC(=O)c2cc(-c3ccc4c(c3)OCCO4)on2)cc1 returned TRPML1 ag 2.3 and TRPML1 blocker -15.
Screening Cc1cc(C)c(S(=O)(=O)NCCc2sc3nc(-c4ccc(F)cc4)nn3c2C)c(C)c1 returned TRPML1 ag 1.1 and TRPML1 blocker 30.
Screening Cc1ccc(NC(=O)CSc2nnc3scc(-c4ccccc4)n23)cc1 returned TRPML1 ag 2.4 and TRPML1 blocker -4.
`Cc1ccc(CNc2nc3c(S(=O)(=O)c4ccccc4)nnn3c3ccsc23)cc1` gave TRPML1 ag -0.2 and TRPML1 blocker -2.
Screening CCCCOc1ccc(CNC(=O)c2ccc(-c3nc(CN4CCc5ccccc54)c(C)o3)cc2)cc1 returned TRPML1 ag 0.9 and TRPML1 blocker -15.
COc1cccc(NC(=O)c2oc3ccccc3c2NC(=O)c2cc3ccccc3o2)c1 was read as TRPML1 ag -0.4 and TRPML1 blocker 35.
Screening Cc1ccc2nc(-c3cccs3)c(Nc3ccc4c(c3)OCCO4)n2c1 returned TRPML1 ag 1.4 and TRPML1 blocker -7.
`Cc1ccccc1OCc1ccc(-c2nc(C#N)c(NCc3cccnc3)o2)o1` gave TRPML1 ag 0.1 and TRPML1 blocker 31.
`COc1ccc(NC(=O)C(CC(C)C)NC(=O)C2CCCCC2)cc1` (stereo not given) gave TRPML1 ag -0.5 and TRPML1 blocker -3.
For COc1ccc(NC(=O)c2c(C)oc3ccc(O)c(CN4CCC(C)CC4)c23)cc1Cl the results were TRPML1 ag -1.0 and TRPML1 blocker -2.
Screening CCN(C(=O)CN(C)S(=O)(=O)c1ccc2c(c1)n(C)c(=O)c(=O)n2C)c1cccc(C)c1 returned TRPML1 ag 2.2 and TRPML1 blocker -15.
Screening Cc1ccc(CNC(=O)C2CCCN(c3nn4cc(-c5ccc(C)cc5)nc4s3)C2)cc1 (stereo not given) returned TRPML1 ag 0.1 and TRPML1 blocker -8.
For Cc1c(O)nc(SCC(=O)Nc2ccc(Cl)cc2Cl)n(-c2ccc(F)cc2)c1=O the results were TRPML1 ag 0.3 and TRPML1 blocker 2.
For O=C(c1ccc2c(c1)N(Cc1ccccc1F)C(=O)c1ccccc1S2(=O)=O)N1CCCCC1 the results were TRPML1 ag -0.6 and TRPML1 blocker -18.
Screening O=C(Cn1ncc2ccsc2c1=O)N1CCN(c2ccccc2)CC1 returned TRPML1 ag 0.9 and TRPML1 blocker 17.
For CCCOc1ccc(CNC(=O)C2CCCN(c3nc4c(C)cc(C)cc4s3)C2)cc1 (stereo not given) the results were TRPML1 ag -0.6 and TRPML1 blocker 6.
Screening COc1ccccc1N1CCN(C2C(=O)c3ccccc3N2C(C)=O)CC1 (stereo not given) returned TRPML1 ag 1.7 and TRPML1 blocker -1.
Screening CCS(=O)(=O)N1CC(=O)N(c2cccc(C)c2C)C(C)(C(=O)NC2CCCCC2)C1 (stereo not given) returned TRPML1 ag 0.5 and TRPML1 blocker -4.
For CCCCN(C)CCCNC(=O)C1CCN(S(=O)(=O)CCC)CC1 the results were TRPML1 ag 0.2 and TRPML1 blocker 0.
For CCC1CN(C(=O)Nc2cc(Cl)c(OC)cc2OC)c2ccccc2O1 (stereo not given) the results were TRPML1 ag 1.7 and TRPML1 blocker -4.

The list goes on; it opens with the two that closed the last part.
For CCCCN(C)CCCNC(=O)C1CCN(S(=O)(=O)CCC)CC1 the results were TRPML1 ag 0.2 and TRPML1 blocker 0.
For CCC1CN(C(=O)Nc2cc(Cl)c(OC)cc2OC)c2ccccc2O1 (stereo not given) the results were TRPML1 ag 1.7 and TRPML1 blocker -4.
For CCOC(=O)c1cccc(NC(=O)c2cc(S(=O)(=O)N3CCCC3)cn2C)c1 the results were TRPML1 ag -0.3 and TRPML1 blocker -3.
Screening COc1cccc(-c2nc(SCC(=O)NCC3CCCO3)c(-c3ccc(Cl)cc3)[nH]2)c1 (stereo not given) returned TRPML1 ag 5.9 and TRPML1 blocker 2.
COc1ccc(N2CCN(Cc3nc4c(c(=O)[nH]c(=O)n4C)n3Cc3ccc(C)cc3)CC2)cc1 was read as TRPML1 ag -0.3 and TRPML1 blocker -4.
O=C(CN1C(=O)COc2ccc(S(=O)(=O)N3CCOCC3)cc21)NCc1ccc(Cl)cc1 was read as TRPML1 ag 4.2 and TRPML1 blocker -9.
`Cc1ccc(-c2nnc(Nc3cccc(Cl)c3)c3ccccc23)cc1S(=O)(=O)N1CCCCC1` gave TRPML1 ag -0.4 and TRPML1 blocker 16.
`CCN(CC)CCCNC(=O)c1ccc(Cn2c(SCc3ccccc3)nc3cccnc32)cc1` gave TRPML1 ag -0.9 and TRPML1 blocker 11.
For CCOC(=O)CSc1nc2sc3c(c2c(=O)n1Cc1ccccc1)CCC(C(C)(C)C)C3 (stereo not given) the results were TRPML1 ag -0.3 and TRPML1 blocker -1.
Screening CCOc1ccccc1NC(=O)Cn1ncc2c([nH]c3ccccc32)c1=O returned TRPML1 ag 3.7 and TRPML1 blocker 16.
`CC1=C(C(=O)N2CCN(c3cccc(C(F)(F)F)c3)CC2)C2(CCCCC2)OC1=O` gave TRPML1 ag 2.7 and TRPML1 blocker -9.
Screening Cn1cc(C(=O)NCCc2ccccc2)c(=O)c2cc(S(=O)(=O)N3CCCCC3)ccc21 returned TRPML1 ag 0.2 and TRPML1 blocker 55.
CCc1c(C)sc2c1CCN(C(=O)Nc1cc(Cl)c(OC)cc1OC)C2c1ccccc1 (stereo not given) was read as TRPML1 ag 1.1 and TRPML1 blocker 46.
`NC(=O)C1(N2CCCCC2)CCN(C(=O)Nc2ccc(Cl)c(Cl)c2)CC1` gave TRPML1 ag 1.2 and TRPML1 blocker 23.
Cn1nnnc1SCCCNCc1cccc(OCc2ccccc2Cl)c1 was read as TRPML1 ag -1.1 and TRPML1 blocker -14.
`Cc1c(Cl)cccc1NC(=O)c1ccc2c(c1)CCN2S(=O)(=O)c1ccccc1` gave TRPML1 ag 0.8 and TRPML1 blocker 35.
`CCOc1ccc(CN2C(=O)c3ccccc3Sc3ccc(C(=O)NCCc4ccccc4)cc32)cc1` gave TRPML1 ag -1.0 and TRPML1 blocker 8.
O=C(Cn1cc(S(=O)(=O)c2ccc(Cl)cc2)c(=O)c2ccccc21)Nc1ccc2c(c1)OCO2 was read as TRPML1 ag 0.2 and TRPML1 blocker 2.
Screening COc1cccc(C2CC(=O)Nc3c2c(=O)nc2c(C)cccn32)c1 (stereo not given) returned TRPML1 ag 1.1 and TRPML1 blocker 7.
COc1cccc(Cn2c(SCc3ccc(C(=O)N4CCCCC4)cc3)nc3ccncc32)c1 was read as TRPML1 ag 0.7 and TRPML1 blocker 17.
For CCOC(=O)c1[nH]c2c(c1Cc1ccccc1C)C(=O)CC(c1cc(OC)ccc1OC)C2 (stereo not given) the results were TRPML1 ag 1.0 and TRPML1 blocker 27.
For Cc1cccc(NC(=O)C2CCCN(S(=O)(=O)c3c(C)[nH]c(=O)[nH]c3=O)C2)c1C (stereo not given) the results were TRPML1 ag 1.2 and TRPML1 blocker 15.
CCCCN1C(=O)C(NC(=O)c2ccc(C(C)(C)C)cc2)(C(F)(F)F)C(C(=O)OC)=C1C (stereo not given) was read as TRPML1 ag -0.6 and TRPML1 blocker 1.
For CCOC(=O)C1CCN(CCC(=O)Nc2ccccc2OC)CC1 the results were TRPML1 ag 2.3 and TRPML1 blocker 5.
For Cc1ccc(C)c(N2C(=O)N(Cc3cccc(C(F)(F)F)c3)c3ccccc3S2(=O)=O)c1 the results were TRPML1 ag -0.8 and TRPML1 blocker -17.
`Cc1cccc(N2CCN(C(=O)c3cc4c(=O)n(C)c5ccccc5c4s3)CC2C)c1` (stereo not given) gave TRPML1 ag -0.3 and TRPML1 blocker 0.

Among those listed so far, five contain a furan ring, fused or not.
Screening Cc1ccc(CNC(=O)Cc2c(C)c3cc4c(C)coc4cc3oc2=O)cc1 returned TRPML1 ag -0.7 and TRPML1 blocker 14.
Screening CCN1CCN(C(c2ccccc2)c2sc3nc(-c4ccco4)nn3c2O)CC1 (stereo not given) returned TRPML1 ag 0.2 and TRPML1 blocker -9.
COc1cccc(NC(=O)c2oc3ccccc3c2NC(=O)c2cc3ccccc3o2)c1 was read as TRPML1 ag -0.4 and TRPML1 blocker 35.
`Cc1ccccc1OCc1ccc(-c2nc(C#N)c(NCc3cccnc3)o2)o1` gave TRPML1 ag 0.1 and TRPML1 blocker 31.
For COc1ccc(NC(=O)c2c(C)oc3ccc(O)c(CN4CCC(C)CC4)c23)cc1Cl the results were TRPML1 ag -1.0 and TRPML1 blocker -2.

(more compounds)
`CN(c1ccc(F)cc1)S(=O)(=O)N1CCCC(C(=O)NCCc2ccccc2)C1` (stereo not given) gave TRPML1 ag 0.6 and TRPML1 blocker 19.
CCC(Sc1nc2ccccc2c2nc(CCc3c(C)n[nH]c3C)nn12)C(=O)Nc1ccccc1F (stereo not given) was read as TRPML1 ag 0.5 and TRPML1 blocker 8.
Cc1ccccc1-c1nc(C(N)=O)c2c(n1)n(-c1ccc3c(c1)OCO3)c(=O)n2C was read as TRPML1 ag -0.8 and TRPML1 blocker 12.
For CCc1cnc2c(c1SCC(=O)c1ccccc1)c(=O)n(C)c(=O)n2C the results were TRPML1 ag 0.4 and TRPML1 blocker -15.
For O=C(NCCc1nc2ccccc2n1Cc1ccc(Cl)cc1)c1ccccc1 the results were TRPML1 ag 4.9 and TRPML1 blocker 51.
CCn1c(=O)c2cc(C(=O)NCCc3ccc(OC)c(OC)c3)sc2c2ccccc21 was read as TRPML1 ag -0.4 and TRPML1 blocker 7.
Cn1c(=O)c2sccc2n2c(CCCC(=O)NC3CCCCC3)nnc12 was read as TRPML1 ag 1.5 and TRPML1 blocker -8.
Screening Cc1cc(=O)[nH]c2nnc(SCc3ccc(Cl)cc3Cl)n12 returned TRPML1 ag 1.9 and TRPML1 blocker 9.
Screening COCC(C)NC(=O)c1cnn2c(C(F)F)cc(-c3ccccc3)nc12 (stereo not given) returned TRPML1 ag -0.5 and TRPML1 blocker 3.
`Cc1ccc(C)c(NC(=O)CSc2nnc(CNC(=O)c3ccccc3)n2-c2ccccc2)c1` gave TRPML1 ag -1.1 and TRPML1 blocker -11.
`CCN(CC)C(=O)Cn1c(=O)nc(-c2ccccc2F)c2cc(Cl)ccc21` gave TRPML1 ag 0.3 and TRPML1 blocker -26.
For COc1ccc(CC(=O)NCCc2csc(-c3cccc(F)c3)n2)cc1OC the results were TRPML1 ag 1.0 and TRPML1 blocker -14.
Screening CCc1ccc(C(=O)c2cn(CC(=O)Nc3ccc(C)c(C)c3)c3ccccc3c2=O)cc1 returned TRPML1 ag 1.6 and TRPML1 blocker -9.
